Bioassay records (PubChem)
LANA-H2B inh = blockers of LANA interaction with H2A/H2B – biochemical, FP readout, HTS, primary screen | Protein LANA1 (Human herpesvirus 8 type P (isolate GK18)), Q9QR71 | 320,000 compounds, 0.6% hits | inhibition, % (test concentration not listed) | cell-free LANA-H2A/H2B peptide, fluorescence polarization; in the data active = inhibition mostly above about 10%, no sharp cut-off; inactive = mostly below about 6.7%;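 also: stock transfer was 7.5 nL into about 10 µL; 0% = median of vehicle wells and 100% = median of positive control wells; one replicate is shown; the record names a cut of 25% in any replicate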
Target sequence (Q9QR71 whole entry, looked up): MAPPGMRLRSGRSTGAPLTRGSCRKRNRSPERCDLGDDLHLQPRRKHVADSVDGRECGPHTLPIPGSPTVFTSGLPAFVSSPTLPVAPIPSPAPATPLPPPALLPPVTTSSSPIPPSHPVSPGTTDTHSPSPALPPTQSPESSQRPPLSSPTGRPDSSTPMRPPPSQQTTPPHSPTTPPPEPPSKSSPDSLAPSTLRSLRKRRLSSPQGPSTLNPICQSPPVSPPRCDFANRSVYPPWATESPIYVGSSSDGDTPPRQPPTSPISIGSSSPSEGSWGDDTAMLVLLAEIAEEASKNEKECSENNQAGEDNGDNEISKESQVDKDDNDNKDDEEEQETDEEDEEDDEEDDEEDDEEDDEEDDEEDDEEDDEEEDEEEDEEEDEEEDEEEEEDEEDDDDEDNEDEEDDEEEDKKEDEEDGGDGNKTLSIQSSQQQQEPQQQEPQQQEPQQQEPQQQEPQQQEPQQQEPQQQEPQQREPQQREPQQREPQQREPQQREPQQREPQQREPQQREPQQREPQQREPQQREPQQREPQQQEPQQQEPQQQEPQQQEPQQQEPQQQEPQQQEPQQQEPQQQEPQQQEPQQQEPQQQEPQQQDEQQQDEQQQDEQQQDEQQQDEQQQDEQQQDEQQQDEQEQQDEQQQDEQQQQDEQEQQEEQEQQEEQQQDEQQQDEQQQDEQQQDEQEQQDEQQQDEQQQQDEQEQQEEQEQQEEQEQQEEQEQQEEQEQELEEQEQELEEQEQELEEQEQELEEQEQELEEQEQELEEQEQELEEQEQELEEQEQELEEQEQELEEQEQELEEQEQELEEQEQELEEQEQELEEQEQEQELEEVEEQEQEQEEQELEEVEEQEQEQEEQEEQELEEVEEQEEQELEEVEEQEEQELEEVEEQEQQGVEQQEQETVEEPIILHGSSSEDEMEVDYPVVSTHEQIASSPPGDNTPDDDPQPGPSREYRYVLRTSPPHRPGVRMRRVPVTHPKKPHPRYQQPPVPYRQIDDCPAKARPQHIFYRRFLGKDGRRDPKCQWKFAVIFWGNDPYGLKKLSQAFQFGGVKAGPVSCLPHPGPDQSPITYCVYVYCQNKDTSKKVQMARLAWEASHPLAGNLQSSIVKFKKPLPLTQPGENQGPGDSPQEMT
E coli growth = E. coli growth inhibition, primary screen, OD600; Escherichia coli growth, 23 h; hits give low values; 330,000 compounds, 0.21% hits; OD600 absorbance (concentration not given with the values);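 active = OD600 absorbance below the run mean of sample wells minus 3.6 SD, in any replicate, cut at about 0.56 in these data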;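 also: stock transfer was 300 nL into about 60 µL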
A1 inh = caspase 3/7 activation in MEF A1-2A-BIM cells, primary screen, A1 inhibitor project, cell-based, luminescence, HTS. Caspase-Glo 3/7 luminescence, 3 h; percent of clofoctol response, vehicle zero. caspase activation, % (test concentration not listed). 330,000 compounds, 0.066% hits;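 active = over half of replicate activation scores above 10%, or exactly half above 10 with the replicate mean above 10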;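 also: wells of about 30 µL received 50 nL stock; many hits fall short of the cut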
UCH37 DUB inh = inhibitors of human UCH37 deubiquitinase, primary screen, biochemical, Ub-AMC cleavage, fluorescence. AID 588478, 2011. inhibition, % (no concentration beside the values). purified proteasome/UCH37. 330,000 compounds, 0.33% hits. Ubiquitin carboxyl-terminal hydrolase isozyme L5 (Homo sapiens), Q9Y5K5;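 active = mean of two replicates above 20%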;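 also: 0% = compound-free wells with enzyme and 100% = wells lacking proteasome; stock transfer was 100 nL into about 20 µL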
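Material: Human UCH37 enzyme supplied as purified proteasome complex | Schedule: 30 min compound-proteasome preincubation then 25 min substrate reaction, room temperature | Detection: AMC fluorescence from Ub-AMC cleavage, excitation 355 nm, emission 460 nm | Benchmarks: Wells without proteasome as full block, compound-free enzyme plus substrate as uninhibited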
B2AR ag = beta2AR agonists driving receptor internalization, primary screen, cell-based, FAP fluorogen, flow cytometry. Am2.2-beta2AR cells; reference of the scale not given here. AID 504454, 2011. 340,000 compounds, 0.43% hits. response, % (concentration not given with the values);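 active = response above a set limit, near 3 SD of response in nonfluorescent compounds, cut at about 42% in these data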;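 also: stock transfer was 100 nL into about 11 µL; a reference agonist was the positive control; negative values mostly stem from fluorescent compounds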
HNF4A DNA FP = change in binding of human HNF4A to DNA, primary screen, biochemical, fluorescence polarization, FITC-DNA. Hepatocyte nuclear factor 4-alpha (Homo sapiens), P41235. 1 h. activity change, % at 10 µM. 360,000 compounds, 0.3% hits. AID 1224865, 2016; in the data active = activity change above about 30%, passing the limit was not always enough;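 also: controls were the assay level and a saturating level of protein; the project sought stronger binding though the title names inhibitors; some compounds called inactive have numbers as strong as hits; positive values seem to mean higher polarization but the record does not say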
Vif A3G = inhibitors of Vif binding to APOBEC3G peptide, primary screen, biochemical, TR-FRET, GST-Vif 1-94, biotin-A3G peptide, dose response retest (AID 1117319). TR-FRET GST-Vif / biotin-A3G peptide binding; higher % means a stronger effect; test concentration not given here; strong numbers were not always called active. one-dose inhibition, %; IC50 in µM for titrated hits. 260,000 compounds, 0.57% hits;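 active = above the screen mean plus three standard deviations and confirmed in dose response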;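 also: Vif residues 1-94 fused to GST binding biotinylated APOBEC3G peptide 110-148; 0% = full assay without inhibitor and 100% = GST in place of GST-Vif; retest series ran down from 100 µM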
Starred values were filed as active, the others as inactive; . = not tested or not shown; & = joins results of further samples.

| smiles | LANA-H2B inh | E coli growth | A1 inh | UCH37 DUB inh | B2AR ag | HNF4A DNA FP | Vif A3G |
| --- | --- | --- | --- | --- | --- | --- | --- |
| COc1ccc(CC(=O)NC(C)c2nnc(SCCOc3ccc(OC)cc3)n2C)cc1 (stereo not drawn) | -1.9 | 0.63 | 0.4 | 1.5 | 7 | -2.7 | -2% |
| COc1ccc(S(=O)(=O)N(c2onc(C)c2Cl)S(=O)(=O)c2ccc(OC)cc2)cc1 | 0.4 | 0.68 | 0.4 | -0.8 | 11 | -2.5 | 5% |
| O=[N+]([O-])c1ccc(/C=N/N/C(=N/c2ccccn2)c2ccccn2)cc1 | -3.0 | . | -3.0 | . | 3 | 1.2 | 0% |
| Cc1ccc(S(=O)(=O)CCNC(=O)Cc2ccc(Cl)cc2)cc1 | 2.7 | 0.65 | 0.4 | 3.4 | -4 | 1.2 | -5% |
| CSc1ccccc1NC(=O)CN(C)C(=O)C1CCN(C(=O)Nc2ccccc2)CC1 | 1.4 | 0.62 | 0.3 | 0.6 | -9 | 5.2 | -3% |
| Cc1cc(NS(=O)(=O)c2ccc(NC(=O)CN3C(=O)c4ccccc4C3=O)cc2)nc(C)n1 | 0.1 | 0.66 | -0.1 | 0.0 | 6 | 1.4 | -1% |
| COC(=O)C(CC(C)C)NC(=O)/C=C/c1ccc(Cl)cc1 (stereo not drawn) | 2.4 | 0.68 | 0.1 | 1.0 | 6 | 0.5 | -4% |
| Cc1cc(C)n(CCN(C)C(=O)C2CCC(=O)N(CCc3cccc(F)c3)C2)n1 (stereo not drawn) | 0.4 | 0.68 | 1.3 | 1.1 | 0 | 1.3 | -2% |
| Brc1ccc(C[n+]2ccccc2)cc1 | -7.0 | 0.66 | -0.2 | -0.6 | -1 | 2.1 | . |
| O=C(CCn1c(=O)oc2ccccc21)Nc1cccc(Br)c1 | 4.2 | 0.7 | 0.8 | 2.2 | -5 | -0.3 | -2% |
| Cc1ccccc1CN1CCN(S(=O)(=O)c2ccc(Cl)s2)CC1 | 4.4 | 0.72 | 1.7 | 3.9 | 3 | 0.0 | . |
| Cc1nn(-c2ccccc2)c(C)c1/C=N/NC(=O)CSc1nnc(SCc2cccc3ccccc23)s1 | -0.7 | . | 0.2 | . | -8 | 1.4 | . |
| CCOc1ccc(C(=O)O/N=C(\N)c2ccccn2)cc1OCC | 1.3 | 0.73 | -2.9 | -0.4 | -2 | -4.0 | -1% |
| CCCCC(=O)O[C@]1(C(=O)CO)CC[C@H]2[C@@H]3CCC4=CC(=O)CC[C@]4(C)[C@H]3[C@@H](O)C[C@@]21C | 2.6&7.3 | . | -0.3 | 1.5 | -7 | 5.2 | 19% |
| O=C(C1CCN(C2CCN(C/C(Cl)=C/c3ccccc3)CC2)CC1)N1CCOCC1 | -1.1 | 0.64 | -0.1 | 4.5 | 1 | 1.5 | . |
| COc1ccc(C=NCCCN2CCOCC2)cc1 | -5.0 | 0.68 | 0.8 | 0.3 | -2 | 0.3 | 22% |
| O=S(=O)(c1ccc(N2CCN(CCO)CC2)nc1)N1CCOCC1 | 0.8 | 0.64 | 0.6 | 4.7 | 6 | -0.2 | 2% |
| COc1ccc(CCN2CC(C(=O)N(C)Cc3c(C)n[nH]c3C)CCC2=O)cc1 (stereo not drawn) | . | 0.67 | . | 4.2 | -9 | 6.0 | 2% |
| CCn1ncc(Cl)c1C(=O)Nc1cc(Cl)ccc1Cl | -2.8 | 0.7 | 1.2 | 5.2 | 4 | -2.5 | 2% |
| CCOC(=O)C1CCN(c2nc(C)cc(C)c2C#N)CC1 | -2.8 | 0.69 | -0.8 | -1.8 | 4 | -5.0 | . |
| O=C(/C=C/c1ccccc1)NC(=S)NNS(=O)(=O)c1ccccc1 | -3.4 | 0.73 | -0.1 | 6.1 | 2 | 1.5 | 3% |
| COCCCNC(=O)Cn1cnc2sc(C)c(S(=O)(=O)N3CC(C)CC(C)C3)c2c1=O (stereo not drawn) | 4.6 | 0.71 | -0.3 | 3.7 | -5 | 0.2 | . |
| CCCCC(=O)Oc1ccccc1C1SCc2cc(C)c(C)cc2CS1 | -1.6 | 0.73 | -0.2 | 4.6 | -1 | -0.6 | 17% |
| Cc1onc(-c2ccc3c(c2)OCO3)c1-c1ccc2[nH]ccc2c1 | -2.0 | 0.68 | -0.3 | 1.5 | 0 | 2.2 | . |
| Cc1noc(C)c1S(=O)(=O)N1CCCN(C(=O)/C=C/c2ccccc2F)CC1 | -0.8 | 0.68 | 0.2 | 1.0 | -5 | -2.5 | -1% |
| CCOc1ccc(C(=O)NCC(=O)OCc2c(C)noc2C)cc1OCC | -2.1 | 0.71 | -0.1 | 3.3 | 25 | 0.9 | 19% |
| CC(=O)Nc1ccc(NC(=O)COC(=O)c2ccc(Cl)nc2)cc1 | . | 0.66 | . | 3.5 | 1 | -1.1 | -2% |
| O=C(OCC(=O)c1ccc(Br)s1)c1ccc(O)cc1 | -2.0 | 0.69 | -6.4 | -0.4 | 0 | 13 | . |
| CCOC(=O)Cn1nnc(-c2ccc(OCC(C)C)cc2)n1 | 4.0 | 0.7 | -0.3 | -0.3 | 2 | -0.1 | 1% |
| COc1ccc(N2CCN(S(=O)(=O)c3ccc(Cl)s3)CC2)cc1 | 3.9 | 0.76 | 1.0 | 3.2 | -3 | -1.8 | -5% |
| C=CCNC(=O)/C(=C/c1cccc([N+](=O)[O-])c1)NC(=O)c1ccco1 | -1.7 | 0.73 | 0.5 | 3.7 | -4 | -0.6 | -4% |
| Cc1ccc(S(=O)(=O)CC(=O)Nc2nc(-c3ccccc3)cs2)cc1 | -0.9 | 0.63 | 0.8 | . | 2 | 1.4 | 17% |
| COc1cccc(CN2CCNC(=O)C2CC(=O)NCCN2CCOCC2)c1OC (stereo not drawn) | 2.5 | 0.71 | 0.2 | 3.7 | -7 | -0.2 | . |
| O=C1/C(=C/c2ccncc2)CCc2ccccc21 | -3.9 | 0.67 | 0.1 | 8.1 | 3 | 4.0 | -9% |
| Cn1c(Cc2ccccc2)nnc1SCC(=O)Nc1ccc2c(c1)OCCO2 | -5.3 | 0.65 | -0.4 | -0.4 | 8 | -1.0 | 8% |
| COc1cc(/C=C/C(=O)O)cc(S(=O)(=O)Nc2ccc3nc(SC)sc3c2)c1OC | -7.2 | 0.71 | 0.1 | 2.9 | -18 | 1.4 | 13% |
| CC(=O)c1cc(C#N)c(N2CCN(c3ccccc3)CC2)nc1C | 12 | 0.7 | -0.5 | -0.3 | -5 | 0.9 | -324% |
| COc1ccc(OC)c(CCNC(=O)C(C)n2nc(C)c3c(C)n(-c4ccccc4)nc3c2=O)c1 (stereo not drawn) | 2.6 | 0.67 | -0.6 | 4.3 | -4 | 3.8 | . |
| CCN(CC)S(=O)(=O)c1cc(C(=O)OCC(=O)c2ccc3c(c2)NC(=O)CO3)ccc1Cl | -7.0 | 0.69 | 0.2 | -0.4 | 9 | -0.5 | -13% |
| CCOc1ccccc1N(CC(=O)NC1CCCCC1)C(=O)CCCC(=O)Nc1ccccn1 | 2.7 | 0.66 | 0.6 | -2.4 | -12 | 0.3 | 12% |
| CCOC(=O)Nc1cccc2ccccc12 | 5.1 | 0.69 | -0.2 | 4.0 | 12 | -1.5 | 12% |
| COc1ccccc1NC(=O)COC(=O)C1CC2C=CC1C2 (stereo not drawn) | 1.7 | 0.74 | 0.3 | 3.7 | 2 | 0.4 | -4% |
| C=C(C(=O)c1ccccc1)C(C)C(=C)C(=O)c1ccccc1 | -2.2 | 0.65 | 1.7 | 6.4 | 10 | -2.8 | 21% |
| Cc1c(C(=O)N2CCC(C)CC2)sc2ncnc(N(C)c3ccccc3)c12 | -2.4 | 0.67 | 0.2 | 5.2 | 4 | 2.8 | -23% |
| O=c1c(-c2n[nH]c(=S)n2-c2ccccc2)cccn1Cc1cccc(Cl)c1 | -0.5 | 0.74 | 1.1 | 0.4 | 11 | -1.3 | . |
| CCOc1ccc(Br)cc1S(=O)(=O)Nc1cccc(S(=O)(=O)N(C)c2ccccc2)c1 | 4.5 | 0.73 | -0.4 | 1.3 | -5 | 1.6 | -5% |
| COc1cc(/C=C/C(=O)O)cc(S(=O)(=O)Nc2ccc(S(=O)(=O)N3CCCCC3)cc2)c1OC | . | 0.7 | . | 0.5 | -1 | 0.5 | 1% |
| CCN(CC)C(=O)CSc1ncnc2c1nnn2-c1ccc(OC)cc1 | -0.3 | 0.8 | -2.4 | 0.1 | 1 | 2.9 | 2% |
| CC(C)=CCN1CCN(Cc2cc(C(C)C)n[nH]2)CC1CCO (stereo not drawn) | -5.0 | 0.68 | 0.1 | 2.4 | 1 | 0.0 | -4% |
| CCC[N+](CC#Cc1ccccc1)(CCC)CC(=O)OC | 4.0 | 0.64 | 0.4 | -0.2 | -15 | -2.6 | 2% |
| O=S(=O)(NC1CCN(Cc2ccccc2)CC1)c1ccc(Cl)cc1 | 1.8 | 0.67 | -0.3 | 5.1 | 4 | 1.9 | 19% |
| Cc1ccc(-c2csc(C3=C(O)CN(NC(=O)c4ccco4)C3=N)n2)cc1 | 0.4 | 0.7 | -0.3 | 3.9 | 12 | 1.6 | -18% |
| CCOC(=O)C1(Cc2ccccc2C(F)(F)F)CCN(Cc2ccc(COC)o2)CC1 | 2.5 | 0.73 | 0.6 | 3.5 | 0 | -0.7 | -11% |
| O=C(Cc1ccccc1)Nc1c(Cl)ccc2nsnc12 | 0.4 | 0.71 | -0.1 | -3.7 | -8 | -6.1 | -41% |
| CC1CCc2nc(/C(C#N)=C/c3ccncc3)sc2C1 (stereo not drawn) | 3.2 | . | -0.2 | -62 | -1 | 1.1 | -4% |
| CCOC(=O)c1c(C)[nH]c(C)c1C(=O)COC(=O)CNC(=O)c1ccc(OCC)cc1 | 1.4 | 0.73 | 0.4 | 0.7 | 4 | 1.6 | -3% |
| N#C/C(=C/c1cc(Br)cs1)C(=O)NCC1CCCO1 (stereo not drawn) | 0.6 | 0.73 | 0.0 | 6.1 | 4 | -2.3 | 72% |
| CCn1c(NCc2cc(Cl)ccc2O)nc2ccccc21 | 0.9 | 0.54 | 0.0 | -0.1 | -5 | -3.2 | 29% |
| Cc1cc(N2CCN(c3nc(-c4ccc([N+](=O)[O-])cc4)cs3)CC2)c2ccccc2n1 | 2.3 | 0.72 | 0.6 | 7.0 | 15 | 2.0 | 0% |
| COc1ccc2c(=O)c(Oc3ccc(C(=O)O)cc3)c(C(F)(F)F)oc2c1 | -3.7 | 0.71 | -0.9 | 3.8 | 0 | 1.9 | 4% |
| COc1ccc(/C=C2/Sc3ccc(C(=O)N4CCOCC4)cc3NC2=O)cc1OC | 8.4 | 0.7 | 1.3 | 0.8 | 3 | -1.5 | 4% |
| CCOC(=O)N1CCC(NC(=O)CS(=O)(=O)Cc2nc(-c3ccccc3C)oc2C)CC1 | 2.6 | 0.79 | 0.5 | 5.7 | 5 | 0.9 | 2% |
| CCCCC(=O)C1CCN(Cc2ccccc2)CC1 | -1.8 | 0.73 | 1.5 | 1.6 | 5 | 9.3 | 8% |
